High-throughput results from PubChem BioAssay.
ClpP mod: qHTS Assay for Activators of ClpP | 340,000 compounds, 1.9% hits | Potency, µM (doses to about 57.5 µM), for the others: at the highest dose activity change, negative = active | AID 651965, 2013 | ATP-dependent Clp protease proteolytic subunit (Bacillus subtilis (strain 168)), P80244 | purified B. subtilis ClpP, FRET peptide cleavage, 20 min; active = well fitted falling curve with a large enough effect; inconclusive = small, poorly fitted or top-dose-only effect; inactive = no such curve, though single readings can be large or run the other way; note: potency is the fitted concentration of half-maximal effect; the source files actives as falling curves though it sought activators and does not explain the sign; nearly all actives have a fitted effect of over 65% in size; many hits overshoot -100%
Target sequence (P80244 whole entry, looked up): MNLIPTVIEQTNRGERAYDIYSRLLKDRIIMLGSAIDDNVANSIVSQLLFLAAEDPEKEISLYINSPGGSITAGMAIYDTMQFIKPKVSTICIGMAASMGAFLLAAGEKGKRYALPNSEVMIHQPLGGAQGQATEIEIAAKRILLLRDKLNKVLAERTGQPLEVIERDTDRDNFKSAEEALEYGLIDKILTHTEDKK
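FRET quenching reversal measured ClpP activation: 10 microg/mL B. subtilis ClpP at pH 8 with the FRET-FV decapeptide, read at 430 nm after 320 nm excitation. The 20-min minus 0-min signal was scaled between DMSO/no-enzyme wells and ADEP (5.8 microM final).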
TRPML1 blocker: qHTS for Inhibitors of the Human Mucolipin Transient Receptor Potential 1 (TRPML1). TRPML1-inducible cells, Ca2+ dye fluorescence, FDSS; stronger effect = lower value; inhibition of EC80 agonist-evoked calcium signal. activity change, negative = inhibition, % (test concentration not listed). 390,000 compounds, 0.02% hits. AID 624415, 2012; in the data active means activity change below about -50%; inconclusive means about -30% to -50%; inactive means above about -30%;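 note: stimulus is agonist 54-4 at its EC80 concentration; % is set by controls: 0 for no effect and ±100 for the full control effect; compound concentration not given in the record; the text of the record puts the active cut at -80%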
Target sequence (Q9GZU1 whole entry, looked up): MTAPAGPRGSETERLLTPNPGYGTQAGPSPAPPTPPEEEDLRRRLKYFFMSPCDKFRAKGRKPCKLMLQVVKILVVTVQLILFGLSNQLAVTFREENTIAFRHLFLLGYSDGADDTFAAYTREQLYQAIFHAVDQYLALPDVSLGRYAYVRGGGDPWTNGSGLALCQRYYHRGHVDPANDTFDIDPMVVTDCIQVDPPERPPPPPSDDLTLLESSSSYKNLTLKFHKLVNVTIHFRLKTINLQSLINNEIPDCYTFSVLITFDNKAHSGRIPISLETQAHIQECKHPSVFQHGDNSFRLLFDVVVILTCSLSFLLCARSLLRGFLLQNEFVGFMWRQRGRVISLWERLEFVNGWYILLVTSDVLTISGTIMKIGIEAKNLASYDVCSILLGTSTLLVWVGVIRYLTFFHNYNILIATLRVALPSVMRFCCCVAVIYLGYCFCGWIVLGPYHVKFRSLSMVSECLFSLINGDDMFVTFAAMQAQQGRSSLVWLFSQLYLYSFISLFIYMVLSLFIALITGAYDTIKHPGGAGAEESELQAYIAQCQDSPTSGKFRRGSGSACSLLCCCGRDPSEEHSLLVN
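Calcium fluorescence in TRPML1-DL cells induced overnight with Tet: a 110 s read after compound pin addition, then a 110 s antagonist read after challenge with 54-4 at 4 uM final (EC80).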
* = called active by the depositor; ? = inconclusive.

The line under a structure holds: ClpP mod	TRPML1 blocker
> Cc1ccc(CNC(=O)CN2C(=O)CCc3cc(S(=O)(=O)N4CCCCC4)ccc32)cc1
    5.1%	31
> CCCN1CCCc2cc(CN(CCCN3CCOCC3)C(=O)Nc3ccc(CC)cc3)ccc21
    -7.6%	22
> CCc1ccc(NC(=O)CCNS(=O)(=O)c2ccc3c(c2)oc(=O)n3C)cc1
    2.9%	-3
> CN(C)CCNC(=O)Cc1ccc(NC(=O)N2CCCCc3ccccc32)cc1
    -1.1%	-1
> O=C(c1ccc2c(c1)N(Cc1c(F)cccc1Cl)C(=O)c1ccccc1S2)N1CCCC1
    1.1%	19
> Cc1ccc(C(=O)NCC(c2ccc3c(c2)OCO3)N2CCN(C)CC2)cc1C (stereo not drawn)
    -1.1%	-2
> Cc1nn(-c2ccc(N3CCCC3)nn2)c(C)c1CCC(=O)Nc1ccc(F)c(Cl)c1
    -6.0%	-3
> COc1cc(CNC(=O)CSCc2nc3cccnc3n2C2CCCCC2)cc(OC)c1OC
    0.2%	24
> CCCCOc1ccc(NC(=O)Cn2nnnc2-c2ccccc2F)cc1
    1.1%	-12
> Cc1cccc(OCC(=O)N2CCC(c3nc4ccccc4o3)CC2)c1C
    1.2%	10
> COc1cc(-c2coc3c(C(=O)Nc4ccc(C(C)C)cc4)cccc23)ccc1O
    -12%	-3
> CCOC(=O)N1CCC(NC(=O)c2ccc3c(c2)N(Cc2cccc(C)c2)C(=O)c2ccccc2S3(=O)=O)CC1
    -0.6%	29
> COc1ccccc1-c1noc(CSc2nnc(-c3ccccc3)n2-c2ccc(C)c(C)c2)n1
    -0.8%	12
> Cc1cc(C)c(S(=O)(=O)NCCc2sc(-c3cccnc3)nc2C)c(C)c1
    3.9%	-16
> COc1ccccc1CNC(=O)NCc1noc2ccc(C)cc12
    0.9%	-6
> Cc1ccc(NC(=O)C2CCN(c3nnc(C)c4c(C)n(-c5ccccc5)nc34)CC2)cc1Cl
    -0.5%	-4
> Cc1ccc(-c2noc(CN(C3CCCCC3)S(=O)(=O)c3ccc(F)cc3)n2)cc1
    -0.6%	10
> COc1ccc(-c2nc3c(c(SCC(=O)N4CCCCC4)n2)Cc2c(CO)cnc(C)c2O3)cc1
    0.3%	1
> CC(C)(C)OC(=O)N1CCC(c2c(C(=O)N3CCN(c4ccccc4)CC3)cnn2-c2ccccc2)CC1
    -1.1%	-26
> Nc1ncnc2c1ncn2[C@@H]1O[C@H](C(=O)N(CCC2=CCCCC2)CC2CC2)[C@@H](O)[C@H]1O
    2.4%	16
> OC(c1ccc(F)c(F)c1)c1nc(-c2ccncc2)cs1 (stereo not drawn)
    1.6%	4
> O=C(Cn1c(=O)nc(-c2ccccc2)c2cc(Cl)ccc21)NCCCc1ccccc1
    -22%	30
> Cn1c(=O)c2c(SCC(=O)Nc3ccccc3C(F)(F)F)nc(C3CCCC3)nc2n(C)c1=O
    -0.7%	4
> COc1ccc(C(=O)Nc2noc3ccccc23)cc1
    -0.4%	-20
> CCc1cc2c(cc3c(=O)n(CC(=O)N4CCN(c5cc(Cl)ccc5C)CC4)ncn32)s1
    0.1%	-9
> O=C(CCCCn1c(=O)[nH]c2ccsc2c1=O)N1CCN(c2cccc(C(F)(F)F)c2)CC1
    -1.8%	3
> COc1ccc(Nc2ncnc3c2c(-c2ccccc2)cn3-c2ccc(C)c(Cl)c2)cc1OC
    ?	46
> CCN(CC)C(=O)Cn1c(=O)n(CCCCCC(=O)NCc2ccc3c(c2)OCO3)c(=O)c2sccc21
    -2.9%	-7
> COc1ccc(C(C)=O)cc1CSc1nc(Nc2ccc(F)c(F)c2)c2ccccc2n1
    -13%	29
> CCc1ccc(NC(=O)C(=O)NCCc2csc(-c3cccc(F)c3)n2)cc1
    1.2%	-7
> CCC(Sc1nc2nccnc2c(=O)n1Cc1ccc(Cl)cc1)C(=O)NC1CCCCC1 (stereo not drawn)
    -3.9%	2
> CCN1CCN(Cc2nc3cc(NC(=O)c4ccccc4[N+](=O)[O-])ccc3n2CC)CC1
    -2.4%	-1
> CC(=O)Nc1ccc(NC(=O)c2cc3sccc3n2Cc2ccc(Cl)cc2)cc1
    4.2%	-7
> CCc1ccc(C(=O)Nc2cccc(-c3nc4cc(C(C)C)ccc4o3)c2)cc1
    25µM*	1
> COc1ccc2c(c1)CC(C(=O)NCCN1CCN(c3ccccc3F)CC1)CO2 (stereo not drawn)
    -4.0%	6
> COC(=O)c1ccccc1NC(=O)Cn1c(=O)n(CCCC(=O)NCc2ccccc2OC)c(=O)c2ccccc21
    -6.2%	2
> CC(C)c1ccc(NC(=O)C2CCN(c3nc(-c4ccc(C(C)C)cc4)no3)CC2)cc1
    -9.4%	-18
> O=S(=O)(Nc1ccc(F)c(Cl)c1)c1ccc(Br)s1
    -3.0%	-4
> CCc1ccc(OCC(=O)Nc2cc3oc4ccccc4c3cc2OC)c(Br)c1
    -6.9%	-7
> Cn1cc(S(=O)(=O)c2cccc(Cl)c2)c(=O)c2cc(F)c(N3CCCCC3)cc21
    4.1%	30
> O=C(Nc1cccc(F)c1)C1CCN(S(=O)(=O)c2cccc3nsnc23)CC1
    -1.5%	-15
> CCc1ccc(CNC(=O)CCc2c(C)nn(-c3ccc(N4CCCCC4)nn3)c2C)cc1
    -2.2%	6
> Cc1cc(C)c(NC(=O)Cc2ccc(-n3c(C)nc4cccnc43)cc2)c(C)c1
    -7.6%	-4
> COc1cc(-c2noc(CN3CCN(c4cccc(Cl)c4)CC3)n2)cc(OC)c1OC
    -1.0%	33
> Cc1cc(=O)oc2c3c(ccc12)OCN(Cc1ccccc1Cl)C3
    4.2%	17
> CCS(=O)(=O)c1ncc(Cl)c(C(=O)N(Cc2ccccc2)c2ccc(OC)cc2)n1
    -3.0%	-8
> Cc1ccc2nc(N(Cc3cccnc3)C(=O)CCS(=O)(=O)c3ccccc3)sc2c1
    2.0%	-16
> Cc1cccc(NC(=O)c2nnn(CC(=O)Nc3ccc(C(C)C)cc3)c2N)c1C
    67%	-13
> CC(C)CC(=O)NCC(c1ccc2c(c1)OCO2)N1CCN(c2ccccc2F)CC1 (stereo not drawn)
    -1.1%	18
> Cc1cccc2c(=O)cc(CSc3ccccc3NC(=O)c3cccc(Br)c3)[nH]c12
    3.1%	20

The list continues.
The line under a structure holds: ClpP mod	TRPML1 blocker
> CCCOc1ccc(CN(C(=O)c2cc(=O)c3ccc(C)cc3o2)C2CCS(=O)(=O)C2)cc1 (stereo not drawn)
    0.0%	-12
> CCc1ccc(-n2nc(CO)c(C(=O)NCC(c3ccccc3)c3ccccc3)n2)cc1
    ?	-18
> Cc1ccc(S(=O)(=O)N2C[C@H]3C(=O)C[C@@H](c4ccc(Cl)cc4)N(S(=O)(=O)c4ccc(C)cc4)[C@H]3C[C@H]2c2cccc3ccccc23)cc1
    0.7%	-1
> CCOC(=O)c1ccccc1NC(=O)CSc1nc(=O)[nH]c2c1CCC2
    -6.1%	-4
> COc1ccc(Cn2ccc3nc(C)c(C(=O)NCc4ccc(OC)cc4OC)cc3c2=O)cc1
    -4.6%	-15
> CCOc1ccccc1NC(=O)CSc1nccn1Cc1ccc(F)cc1
    2.2%	33
> COc1ccc(-c2csc3ncnc(Nc4cccc(OC)c4)c23)cc1
    ?	6
> COC(=O)c1cc2sc(C)cc2n1Cc1nc(-c2ccc(C)cc2)oc1C
    -9.2%	-5
> Cc1nn(C)c2c1c(-c1ccccc1)cc(=O)n2Cc1ccc(Br)cc1F
    -2.9%	12
> O=C(CCCCn1c(=O)c2ccccc2n(CC(=O)Nc2ccc(F)cc2F)c1=O)NCc1ccccc1Cl
    1.2%	-12
> CCCNC(=O)C1(C)CCN1C(=O)C1(c2ccccc2)CC1 (stereo not drawn)
    0.9%	-11
> Cc1ccc2onc(CNC(=O)NCc3ccccc3)c2c1
    -2.5%	-14
> CCN(CC)S(=O)(=O)c1ccc2c(c1)N(CC(=O)Nc1ccc(F)cc1F)C(=O)C1CCCN21 (stereo not drawn)
    3.1%	13
> O=C(CN1N=C(c2ccccc2)CCC1=O)NCc1ccc(F)cc1Cl
    -0.4%	9
> Cc1nnc(N2CCCC(C(=O)Nc3ccccc3C(F)(F)F)C2)c2nn(-c3ccccc3)c(C)c12 (stereo not drawn)
    -19%	39
> Cc1ccc(-c2cn(-c3ccc(Cl)cc3)c(S(=O)(=O)CC(=O)Nc3ccccc3)n2)cc1
    -2.1%	-7
> COc1ccc(N2CCN(CCCNC(=O)c3ccc4nc(N5CCCCC5)sc4c3)CC2)cc1
    -12%	14
> COC(=O)CCc1sc(Nc2ccc(OC)cc2)nc1-c1ccc(OC)cc1
    -3.3%	2
> COc1cccc(Cc2nc3ccccc3nc2SCC(=O)Nc2cccc(C)c2)c1
    -2.3%	32
> CCOc1ccc(NC(=O)CC2C(=O)N(c3ccccc3)C(=O)N2CCc2sccc2C)cc1 (stereo not drawn)
    1.1%	6

Overlap with the part before: 3 entries; new compounds follow.
The line under a structure holds: ClpP mod	TRPML1 blocker
> COC(=O)CCc1sc(Nc2ccc(OC)cc2)nc1-c1ccc(OC)cc1
    -3.3%	2
> COc1cccc(Cc2nc3ccccc3nc2SCC(=O)Nc2cccc(C)c2)c1
    -2.3%	32
> CCOc1ccc(NC(=O)CC2C(=O)N(c3ccccc3)C(=O)N2CCc2sccc2C)cc1 (stereo not drawn)
    1.1%	6
> Cc1ccc(CNC(=O)CN2C(=O)CSc3c2c(C)nn3-c2ccccc2)cc1
    0.1%	-9
> COC(=O)c1ccccc1N(C)S(=O)(=O)c1cc2c3c(c1)CC(=O)N3CCC2
    -16%	-14
> CCc1cccc(NC(=O)c2cc3c(=O)n(Cc4ccccc4)ccc3nc2C)c1
    -22%	-20
> Cc1nc2ccc(S(=O)(=O)CCC(=O)Nc3ccc(Cl)cc3)cc2s1
    -2.8%	-20
> Cc1ccccc1-c1nn2c(=O)cc(CN3CCN(C(=O)c4ccccc4Br)CC3)nc2s1
    -5.4%	6
> CCN(C(=O)C1CCN(S(=O)(=O)c2cc(Br)cc3c2N(C(C)=O)CC3)CC1)c1cccc(C)c1
    0.8%	19
> CCOC(=O)c1cnc2ccc(Br)cc2c1NCCN1CCOCC1
    -0.8%	-2
> CCCN1CCN(CCCNC(=O)c2c(C)nn(-c3ccc(F)cc3)c2-n2cccc2)CC1
    0.6%	-6
> CC1(C(=O)NS(=O)(=O)Cc2cccc(Cl)c2)CCN1C(=O)C1CCCCC1 (stereo not drawn)
    0.8%	-8
> Cc1ccc(NC(=O)c2nnn(CC(=O)Nc3ccc(C)c(Cl)c3)c2N)c(C)c1
    ?	30
> COc1ccc(C)cc1NC(=O)CSc1nc2ccccc2nc1N1CCOCC1
    -0.3%	-10
> CCOc1ccc(C(c2c(O)cc(C)n(CCOC)c2=O)N2CCN(c3ccccc3)CC2)cc1 (stereo not drawn)
    0.6%	11
> Cc1ccc(C)c(NC(=O)CCCN2C(=O)C(c3ccccc3)Oc3cccnc32)c1 (stereo not drawn)
    -0.8%	0
> CCc1ccc(NC(=O)CSC2=Nc3ccccc3C3=NC(CC(=O)NC4CCCCC4)C(=O)N23)cc1 (stereo not drawn)
    -0.3%	24
> Cc1ccc(-c2nnc3c4ccccc4c(C)nn23)cc1NC(=O)c1ccccc1
    4.2%	24
> O=C(Nc1ccc2nc(SCc3ccccc3)sc2c1)c1cccc(F)c1
    4.7%	35
> Cc1ccc(-c2nn3c(-c4ccccc4)nnc3c3ccccc23)cc1
    -6.9%	10
> Cc1cc(C)cc(OCCSc2nc3ccc(NC(=O)COc4ccccc4)cc3s2)c1
    -15%	12
> CCn1cc2nc(SCC(=O)Nc3ccccc3C(F)(F)F)n(Cc3ccc(C)cc3)c(=O)c2n1
    -3.6%	-4
> COc1cccc(CNC(=O)c2ccc3c(=O)n4nc(Nc5ccccc5)sc4nc3c2)c1
    2.9%	-27

Among those listed so far, 3 have an NH in an aromatic ring:
The line under a structure holds: ClpP mod	TRPML1 blocker
> O=C(CCCCn1c(=O)[nH]c2ccsc2c1=O)N1CCN(c2cccc(C(F)(F)F)c2)CC1
    -1.8%	3
> Cc1cccc2c(=O)cc(CSc3ccccc3NC(=O)c3cccc(Br)c3)[nH]c12
    3.1%	20
> CCOC(=O)c1ccccc1NC(=O)CSc1nc(=O)[nH]c2c1CCC2
    -6.1%	-4

Next compounds follow:
The line under a structure holds: ClpP mod	TRPML1 blocker
> CCc1ccccc1NC(=O)c1ccc2[nH]c(C)c(C)c2c1
    5.8%	4
> O=C(Cn1c(=O)n(-c2ccccc2)c(=O)c2c3c(sc21)CCCC3)Nc1ccc(F)cc1F
    -1.3%	1
> O=C(CCC1N=C2c3ccccc3N=C(SCc3ccccc3F)N2C1=O)NCc1ccc(F)cc1 (stereo not drawn)
    4.5%	-4
> COc1ccc(NC(=O)C2CCN(S(=O)(=O)c3ccc4[nH]c(=O)ccc4c3)CC2)cc1Cl
    -6.2%	-7

Only part of the results is shown; count on the stated rates, not on these rows.
